GLA inh pH 4.5: alpha-galactosidase A (human) inhibition, pH 4.5; P06280; purified enzyme, 4-MU-alpha-Gal fluorescence, pH 4.5; activity change, negative = inhibition, % at 105 µM; 230,000 tested, under 10 active; AID 1467; inconclusive = small, poorly fitted or top-dose-only inhibition, or a rising curve; inactive = flat fitted curve, though single readings scatter; no compound was filed as active;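 note: 0% = full activity with enzyme and -100% = basal without enzyme; dose as in the result columns while the protocol names 77 µM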
miR-21 reporter: miR-21 reporter, rising signal. HeLa miR-21 FLuc reporter, luciferase, 48 h. Potency, µM (titrated, usually from 38.3 µM), for the others: top-dose reporter change, positive = more light. 340,000 tested, under 10 active. AID 2288; active = well fitted rising curve with a large enough effect; inconclusive = small, poorly fitted or top-dose-only effect; inactive = no such curve, though single readings can be large or run the other way;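 note: % of control where 0% means no effect; miR-21 action dims this reporter so a rising signal means less miR-21 action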
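Luminescence from a firefly luciferase reporter carrying a miR-21 binding site downstream, stably expressed under a CMV promoter in HeLa cells that make miR-21 endogenously, reports miRNA modulation after 48 h compound exposure up to approximately 40uM final.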
Rango release inh: prevents RanGTP from dissociating the Rango-importin beta complex | Potency, µM (series often up to 46.1 µM), for the others: at the highest dose activity change, negative = inhibition | O95149+P62826 | 0.071% of 340,000 active | Biochemical FRET Rango-importin beta, RanGTP-induced dissociation; active means falling FRET ratio curve, often poorly fitted, with flat reads before Ran was added; inconclusive means other falling curves, or compound fluorescence or quenching; inactive means flat or rising ratio curve;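 note: potency is the fitted concentration of half-maximal effect; % of control where 0% means no effect; nearly all actives have a fitted effect of over 45% in size; -100% = wells without RanGTP and RCC1; the record marks most hits as doubtful in a second field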
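Compounds sat 5 min at room temperature with 0.1 uM Rango biosensor plus 0.25 uM importin beta, then FRET pre-read. RanGTP-RCC1 (0.6 uM Ran, 2mM GTP, 0.2 uM RCC1) added for 45 min, and the CFP/YFP post-read measured blocked complex dissociation.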
Rango complex inh: Rango-importin beta binding inhibition; Potency, µM (top dose mostly 92.2 µM), without a hit: at the top dose inhibition of complex formation; Rango CFP/YFP FRET sensor + importin beta, 45 min; AID 540263; Q14974; 0.031% of 340,000 active; active = rising FRET ratio curve, often small or poorly fitted; inconclusive = mostly compound fluorescence or quenching in the first reads; inactive = flat curves in all reads;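 note: potency is the fitted concentration of half-maximal effect; 0% = DMSO wells and 100% = buffer wells lacking importin beta; nearly all actives have a fitted effect of over 15% in size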
Target sequence (Q14974 whole entry, looked up): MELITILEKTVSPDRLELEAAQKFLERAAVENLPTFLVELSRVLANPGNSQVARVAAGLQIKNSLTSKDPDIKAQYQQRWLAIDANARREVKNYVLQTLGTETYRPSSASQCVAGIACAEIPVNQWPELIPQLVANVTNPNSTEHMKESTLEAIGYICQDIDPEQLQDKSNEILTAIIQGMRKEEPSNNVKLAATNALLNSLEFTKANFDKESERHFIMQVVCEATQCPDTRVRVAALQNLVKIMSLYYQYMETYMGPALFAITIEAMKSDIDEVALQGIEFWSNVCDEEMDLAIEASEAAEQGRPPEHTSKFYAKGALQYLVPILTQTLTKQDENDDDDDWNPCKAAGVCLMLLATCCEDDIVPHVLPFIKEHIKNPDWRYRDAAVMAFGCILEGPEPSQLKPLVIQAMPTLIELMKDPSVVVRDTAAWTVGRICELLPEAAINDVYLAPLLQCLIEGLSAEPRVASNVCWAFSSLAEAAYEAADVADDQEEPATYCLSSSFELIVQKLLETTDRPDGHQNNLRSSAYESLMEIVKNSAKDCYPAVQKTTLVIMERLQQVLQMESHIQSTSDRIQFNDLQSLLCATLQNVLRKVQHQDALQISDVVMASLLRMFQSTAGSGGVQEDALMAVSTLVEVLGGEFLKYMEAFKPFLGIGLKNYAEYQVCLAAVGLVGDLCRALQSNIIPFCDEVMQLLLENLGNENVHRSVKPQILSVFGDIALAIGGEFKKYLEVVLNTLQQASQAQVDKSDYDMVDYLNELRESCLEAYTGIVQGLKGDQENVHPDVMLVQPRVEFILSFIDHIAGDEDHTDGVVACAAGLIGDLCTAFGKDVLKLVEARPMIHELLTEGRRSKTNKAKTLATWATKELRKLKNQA
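FRET biosensor (snurportin 1 IBB flanked by EYFP and cerulean), 50 nM, with compound 5 min, then 0.125 microM importin beta in PBS, 1 mM DTT, 0.02% Tween-20, 0.1% BSA. CFP/YFP ratio read after 45 min at room temperature; pre-read flags interference.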
Active calls of the source: *; & = joins results of further samples. Not all compounds are listed; count on the stated rates, not on these rows.

How did CC(=O)N1CCN(C(=O)c2oc3ccccc3c2C)CC1 do in these assays?
miR-21 reporter: -2%; Rango release inh: -5%; Rango complex inh: -1.3%

What do the screens show for `CC(C)(C(N)=O)N1CCN(c2ncc(C(F)(F)F)cc2Cl)CC1`?
GLA inh pH 4.5: 1; miR-21 reporter: 10%; Rango release inh: 11%; Rango complex inh: -2.1%

Results for O=C1COc2ccc(C(=O)CCl)cc2N1 ?
GLA inh pH 4.5: -4; miR-21 reporter: 8%; Rango release inh: 0%; Rango complex inh: 2.6%

What do the screens show for `N#Cc1nc(COc2ccccc2Cl)oc1N1CCCC1`?
GLA inh pH 4.5: -14; miR-21 reporter: -29%; Rango release inh: -6%; Rango complex inh: -2.4%

What do the screens show for `CCOC(=O)CN1C(=O)CSc2ccc(S(=O)(=O)N3CCCC3)cc21`?
GLA inh pH 4.5: -8; miR-21 reporter: 7%; Rango release inh: -11%; Rango complex inh: 2.4%

What do the screens show for `Cc1cc(C)c2c(n1)nn1c(N3CCN(c4ccccc4)CC3)cc(C)nc21`?
GLA inh pH 4.5: 5; miR-21 reporter: -3%; Rango release inh: -10%; Rango complex inh: -2.4%

How did O=C(Nc1ccc(Cl)cc1Cl)NC1CCCC1 do in these assays?
GLA inh pH 4.5: 3; miR-21 reporter: -17%; Rango release inh: -8%; Rango complex inh: -4.8%

How did CC(=O)c1ccc(OC(=O)c2cccs2)cc1 do in these assays?
GLA inh pH 4.5: 1; miR-21 reporter: -6%; Rango release inh: 8%; Rango complex inh: 0.4%

Results for O=C(CN1C(=O)NC2(CCCC2)C1=O)Nc1cc(Cl)ccc1N1CCOCC1 ?
Rango release inh: -3%; Rango complex inh: -0.9%

How did CC1(C)CC(=O)c2sc(NS(=O)(=O)c3ccc(Br)cc3)nc2C1 do in these assays?
GLA inh pH 4.5: 1; miR-21 reporter: 3%; Rango release inh: -14%; Rango complex inh: inconclusive

Results for Cc1cc2c(cc1S(=O)(=O)Nc1cccc(F)c1C)NC(=O)CO2 ?
GLA inh pH 4.5: 2; miR-21 reporter: 2%; Rango release inh: -11%; Rango complex inh: 5.3%

What do the screens show for `Cc1cc2oc(=O)cc(CNc3ccccc3F)c2cc1O`?
miR-21 reporter: -5%; Rango release inh: -1%; Rango complex inh: 5.3%

Results for CCCn1cc(C(=O)N(C)C2CCCN(Cc3ccccc3F)C2)c(C)n1 (stereo not drawn) ?
miR-21 reporter: 1%; Rango release inh: -14%; Rango complex inh: -1.6%

How did Cc1ccc(C)c(SCC(=O)OCC(=O)NCCNC(=O)COC(=O)CSc2cc(C)ccc2C)c1 do in these assays?
Rango release inh: 5%; Rango complex inh: 3.2%

What do the screens show for `C=C(CC)C(=O)c1ccc(OCC(=O)O)c(Cl)c1Cl`?
GLA inh pH 4.5: 1&-3; miR-21 reporter: 0%; Rango release inh: 4%; Rango complex inh: 2.0%

Results for COc1ccc(OCCn2c(=N)n(CCO)c3ccccc32)cc1 ?
GLA inh pH 4.5: -4; miR-21 reporter: 2%; Rango release inh: 8%; Rango complex inh: 2.7%

How did COc1cc(OC)cc(C(=O)NCc2ccc3c(c2)cc(C)n3C)c1 do in these assays?
GLA inh pH 4.5: 4; miR-21 reporter: -4%; Rango release inh: 7%; Rango complex inh: -0.2%

Results for C=CCOC(=O)C1=C(C)NC(=O)NC1c1cc(Cl)cc(Cl)c1OC (stereo not drawn) ?
miR-21 reporter: -1%; Rango release inh: 5%; Rango complex inh: 0.0%

How did CN1C(=O)c2ccc(C(=O)Nc3ccc4c(c3)OCO4)cc2C1=O do in these assays?
miR-21 reporter: 1%; Rango release inh: -3%; Rango complex inh: -1.2%

Results for O=C(CN1CCCCC1)Nc1cccc(Br)c1 ?
GLA inh pH 4.5: 2; miR-21 reporter: -18%; Rango release inh: -7%; Rango complex inh: 2.7%

Of the compounds above, these contain bromine:
How did CC1(C)CC(=O)c2sc(NS(=O)(=O)c3ccc(Br)cc3)nc2C1 do in these assays?
GLA inh pH 4.5: 1; miR-21 reporter: 3%; Rango release inh: -14%; Rango complex inh: inconclusive

Results for O=C(CN1CCCCC1)Nc1cccc(Br)c1 ?
GLA inh pH 4.5: 2; miR-21 reporter: -18%; Rango release inh: -7%; Rango complex inh: 2.7%

Additional compounds follow:
How did COc1ccc(C)cc1NC(=O)CNC(=O)[C@@H]1Cc2ccccc2CN1 do in these assays?
miR-21 reporter: 6%; Rango release inh: -12%; Rango complex inh: 0.9%

Results for O=C(CSc1nnc2c(n1)[nH]c1ccccc12)Nc1nncs1 ?
miR-21 reporter: -12%; Rango release inh: -18%; Rango complex inh: 0.4%

What do the screens show for `Cc1ccccc1OCC(=O)Nc1sc2c(c1C#N)CCC2`?
GLA inh pH 4.5: 6; miR-21 reporter: -18%; Rango release inh: 4%; Rango complex inh: -2.6%

What do the screens show for `CN(/N=C/c1ccco1)C1=NS(=O)(=O)c2ccccc21`?
GLA inh pH 4.5: 12; miR-21 reporter: 0%; Rango release inh: inconclusive; Rango complex inh: inconclusive

How did Cc1nc(NC(=O)C2CC2)sc1C(=O)Nc1ccccc1 do in these assays?
miR-21 reporter: -8%; Rango release inh: -10%; Rango complex inh: 3.2%

What do the screens show for `COc1ccccc1N1CCN(C(=O)C2Cc3ccccc3CN2C(=O)c2ccco2)CC1` (stereo not drawn)?
Rango release inh: -1%; Rango complex inh: 4.0%

How did COc1ccc(OC)c(-c2csc(NC(=O)Cc3cc(OC)c(OC)c(OC)c3)n2)c1 do in these assays?
miR-21 reporter: 10%; Rango release inh: 9%; Rango complex inh: 3.3%

How did CCN(CC(=O)Nc1ccc(NC(C)=O)cc1)C(=O)/C=C/c1cccs1 do in these assays?
GLA inh pH 4.5: -5; miR-21 reporter: 0%; Rango release inh: 13%; Rango complex inh: -2.2%

What do the screens show for `COc1ccc(NC(=O)CSCc2ccccc2C)cc1`?
GLA inh pH 4.5: -4; miR-21 reporter: -61%; Rango release inh: -4%; Rango complex inh: 2.0%

How did CCOc1ccccc1NC(=O)CSc1nnc(NC(=O)c2ccco2)s1 do in these assays?
miR-21 reporter: 0%; Rango release inh: 6%; Rango complex inh: 0.7%

Results for CCOc1ccc(CCNC(=O)C2=C(C)C(=O)OC23CCCCC3)cc1OCC ?
GLA inh pH 4.5: -2; miR-21 reporter: 5%; Rango release inh: 25%; Rango complex inh: 3.4%

What do the screens show for `CC(Sc1nnc(NCc2ccccc2)s1)C(=O)Nc1ccc2c(c1)C(=O)c1ccccc1C2=O` (stereo not drawn)?
GLA inh pH 4.5: 2; miR-21 reporter: -46%; Rango release inh: 4%; Rango complex inh: -4.4%

How did CCOc1ccc(NC(=O)CCC(=O)c2ccc(F)cc2)cc1 do in these assays?
miR-21 reporter: -4%; Rango release inh: -5%; Rango complex inh: inconclusive

How did CC1CCC2(CC1)NC(=O)N(CC(=O)c1ccc(CNC(=O)C(C)(C)C)s1)C2=O (stereo not drawn) do in these assays?
Rango release inh: -7%; Rango complex inh: 1.2%

How did C[C@H]1COC(=O)[C@H](Cc2ccc(F)cc2)C/C=C\C[C@H](CC(=O)N(CCO)Cc2ccccc2)C(=O)N1 do in these assays?
Rango release inh: -8%; Rango complex inh: -1.0%

Results for COc1cc(C2C3=C(CC(C)(C)CC3=O)NC3=C2C(=O)c2ccccc23)ccc1O (stereo not drawn) ?
GLA inh pH 4.5: 1; miR-21 reporter: -14%; Rango release inh: -14%; Rango complex inh: -0.2%

Results for Cc1ccc(NC(=O)C2C3CCCC2C3c2ccccc2)c(C)c1 (stereo not drawn) ?
GLA inh pH 4.5: 2; miR-21 reporter: -4%; Rango release inh: -18%; Rango complex inh: 4.5%

How did Cc1nn(-c2ccc(F)cc2)c2sc(C(=O)O)cc12 do in these assays?
GLA inh pH 4.5: -2; miR-21 reporter: -13%; Rango release inh: -19%; Rango complex inh: 3.1%

How did Cc1ccc(N=C2NC(=O)CC(C(=O)Nc3ccc4c(c3)OCO4)S2)cc1 (stereo not drawn) do in these assays?
GLA inh pH 4.5: 9; miR-21 reporter: 0%; Rango release inh: 0%; Rango complex inh: -0.9%

How did CCc1ccc(N(CC(=O)NC(C)(C)C)C(=O)CCC(=O)Nc2ccccn2)cc1 do in these assays?
miR-21 reporter: 2%; Rango release inh: 4%; Rango complex inh: -1.6%

Random excerpt: three entries already listed, in no set order.
How did CCOc1ccc(NC(=O)CCC(=O)c2ccc(F)cc2)cc1 do in these assays?
miR-21 reporter: -4%; Rango release inh: -5%; Rango complex inh: inconclusive

How did C[C@H]1COC(=O)[C@H](Cc2ccc(F)cc2)C/C=C\C[C@H](CC(=O)N(CCO)Cc2ccccc2)C(=O)N1 do in these assays?
Rango release inh: -8%; Rango complex inh: -1.0%

How did CCN(CC(=O)Nc1ccc(NC(C)=O)cc1)C(=O)/C=C/c1cccs1 do in these assays?
GLA inh pH 4.5: -5; miR-21 reporter: 0%; Rango release inh: 13%; Rango complex inh: -2.2%

(further entries)
How did O=C(NNS(=O)(=O)c1ccccc1[N+](=O)[O-])c1cccnc1 do in these assays?
GLA inh pH 4.5: 5; miR-21 reporter: 8%; Rango release inh: -5%; Rango complex inh: 1.0%

Results for COc1ccc(-c2cc(C(=O)N3CC(C)CC(C)C3)c3ccccc3n2)cc1OC (stereo not drawn) ?
Rango release inh: -2%; Rango complex inh: -2.9%

How did COc1ccc2c(CC(=O)OCC(=O)N3CCc4ccccc43)coc2c1 do in these assays?
GLA inh pH 4.5: -6; miR-21 reporter: -7%; Rango release inh: -4%; Rango complex inh: -5.2%

Results for CCCCNC(=O)N1CCN(C(=O)c2ccco2)CC1 ?
GLA inh pH 4.5: -2; miR-21 reporter: 6%; Rango release inh: 1%; Rango complex inh: 0.8%

What do the screens show for `COc1ccc(N2CCN(c3oc(-c4ccco4)nc3C#N)CC2)cc1`?
GLA inh pH 4.5: 3; miR-21 reporter: -4%; Rango release inh: 5%; Rango complex inh: 4.2%

What do the screens show for `CC12CCC(C/C1=N\N=C1\NC(=O)/C(=C\c3cccc(Br)c3)S1)C2(C)C` (stereo not drawn)?
GLA inh pH 4.5: -16; miR-21 reporter: -9%; Rango release inh: 0%; Rango complex inh: 7.0%

Results for O=C(CNc1ccc2ccccc2c1)N/N=C/c1ccc([N+](=O)[O-])o1 ?
GLA inh pH 4.5: 3; miR-21 reporter: 14%; Rango release inh: -3%; Rango complex inh: 4.2%

What do the screens show for `S=C1NC[C@H](CC2CCCCC2)N1CCc1cccc2ccccc12`?
GLA inh pH 4.5: 11; miR-21 reporter: 8%; Rango release inh: 1%; Rango complex inh: -1.0%

Results for CCC[C@H]1CCCC/C=C\CCCC(=O)OCCN1C(=O)OC(C)(C)C ?
Rango release inh: -14%; Rango complex inh: 1.3%

Results for COc1ccccc1NC(=O)C(CCS(C)(=O)=O)N1C(=O)c2ccccc2C1=O (stereo not drawn) ?
GLA inh pH 4.5: 2; miR-21 reporter: 0%; Rango release inh: 2%; Rango complex inh: 6.7%

Results for Cc1[nH]n(-c2ccccc2)c(=O)c1N=Nc1ccc(C#N)cc1 ?
miR-21 reporter: 1%; Rango release inh: 2%; Rango complex inh: 3.4%

What do the screens show for `COc1ccccc1NS(=O)(=O)c1cc(N2Cc3ccccc3C2=N)ccc1N1CCOCC1`?
GLA inh pH 4.5: -3; miR-21 reporter: -5%; Rango release inh: 0%; Rango complex inh: 1.8%

What do the screens show for `O=C(N/N=C/c1ccc(OC(=O)c2cccc(Br)c2)cc1)c1cccnc1`?
miR-21 reporter: -2%; Rango release inh: 10%; Rango complex inh: inconclusive

Results for CC(C)CSc1ccc(S(=O)(=O)NCC(=O)O)cc1[N+](=O)[O-] ?
GLA inh pH 4.5: -14; miR-21 reporter: 1%; Rango release inh: -4%; Rango complex inh: -4.7%

How did Cc1ccc(C(=O)NC(C)C2CC3CCC2C3)c(C)c1 (stereo not drawn) do in these assays?
miR-21 reporter: -39%; Rango release inh: -9%; Rango complex inh: 4.7%

Screening results deposited in PubChem BioAssay by National Center for Advancing Translational Sciences (NCATS).
